Compound activity deposited in PubChem by several laboratories.
GALR2 agonist: activates the human galanin receptor 2 | activation, %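 (tested at 5 µM)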 | O43603 | 140,000 compounds, 0.48% hits | GALR2-expressing cells, agonist activation read-out;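 active means above mean plus 3 SD of all compounds, about 5% in these data, not always enough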;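 further: 0% = vehicle buffer wells and 100% = reference agonist at full effect; tested in CHO reporter cells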
Target sequence (O43603 whole entry, looked up): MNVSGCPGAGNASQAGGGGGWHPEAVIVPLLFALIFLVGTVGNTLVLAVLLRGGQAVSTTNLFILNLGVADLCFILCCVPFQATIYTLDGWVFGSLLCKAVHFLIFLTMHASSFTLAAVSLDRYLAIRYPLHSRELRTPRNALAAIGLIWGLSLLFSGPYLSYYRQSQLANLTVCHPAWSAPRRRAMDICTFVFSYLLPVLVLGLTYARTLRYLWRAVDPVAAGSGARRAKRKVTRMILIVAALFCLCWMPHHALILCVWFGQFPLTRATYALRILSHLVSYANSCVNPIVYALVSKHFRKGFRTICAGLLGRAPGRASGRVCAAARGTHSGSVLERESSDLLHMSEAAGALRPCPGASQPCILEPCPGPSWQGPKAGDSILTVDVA
PKD1 inh: PKD1 (human) kinase inhibition | PKD1 kinase fluorescence polarization assay | inhibition, %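 (about 10 µM by stock and volumes)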 | 200,000 compounds, 0.056% hits | AID 797;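 active means inhibition of 50% or more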;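 further: controls were vehicle for no effect and a reference inhibitor for full effect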
Insulin prom inh: TRM-6 insulin promoter activity inhibition | inhibition, % at 2 µM | TRM-6 cells (human fetal islet line), insulin promoter-eGFP reporter, imaging; reporter expression induced with tamoxifen | 130,000 compounds, 0.9% hits;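 active means inhibition above the mean plus 3 SD, with well images judged a real hit on visual review, cut at about 60% in these data, passing the limit was not always enough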
RGS16-Gao HTS: regulators of human RGS16-Galphao interaction; O15492+P09471; binding response (% of control), % at 10 µM; 220,000 compounds, 0.38% hits; bead-based flow cytometry RGS16-Galphao binding, fluorescence; actives lie on both sides;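 active means below 25% or above 175%, edge rows of some plates excepted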;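 further: Galphao activated by GDP with aluminum fluoride before binding; 100% = wells without compound and 0% = beads without RGS; some results beyond the cut were filed as inactive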
Target sequence (O15492 whole entry, looked up): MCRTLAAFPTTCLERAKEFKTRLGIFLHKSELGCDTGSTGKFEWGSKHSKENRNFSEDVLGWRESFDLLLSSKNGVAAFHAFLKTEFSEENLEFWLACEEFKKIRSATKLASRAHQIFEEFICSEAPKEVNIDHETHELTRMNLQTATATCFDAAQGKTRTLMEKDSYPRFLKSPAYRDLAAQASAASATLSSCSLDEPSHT
Target sequence (P09471 whole entry, looked up): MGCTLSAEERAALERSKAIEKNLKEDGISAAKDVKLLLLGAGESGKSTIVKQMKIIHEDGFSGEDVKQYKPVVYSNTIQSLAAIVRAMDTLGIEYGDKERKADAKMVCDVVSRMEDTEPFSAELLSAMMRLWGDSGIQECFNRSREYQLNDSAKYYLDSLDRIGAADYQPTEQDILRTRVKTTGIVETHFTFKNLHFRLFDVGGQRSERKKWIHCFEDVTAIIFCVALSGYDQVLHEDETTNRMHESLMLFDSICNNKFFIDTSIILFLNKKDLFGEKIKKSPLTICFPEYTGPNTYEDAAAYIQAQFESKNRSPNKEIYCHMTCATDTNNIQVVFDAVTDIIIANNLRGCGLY
HSV replic up: increases HSV replication in cells; HSV replication augmentation in cells, fold increase; maximum fold increase; 220,000 compounds, 0.005% hits;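 active means peak rise of 1.5-fold or more in the series; tested in PC3 cells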;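 further: first round at 10 µM; read as green reporter fluorescence; hits show the peak of a series up to 25 µM; 1 = signal of infected wells without compound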
Insulin prom inh cell count: further read-out of Insulin prom inh, marked with its call; normalized cell count, %; measured here: cell count, toxicity; reference of the scale not given here;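 cells exposed to compound for 48 h; stained nuclei by imaging scaled within each plate; lower means fewer cells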
HSV replic up primary fold: second read-out of HSV replic up, no call of its own (marks repeat the call); fold increase; compound at 10 µM; measured here: primary screen fold increase 10 uM; tested in PC3 cells;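 GFP signal in the first replicate; 1 = infected wells without compound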
* = called active by the depositor.

Results for CCOC(=O)c1c(C)[nH]c(C)c1C(=O)COC(=O)/C=C/c1cccc(C(F)(F)F)c1 ?
GALR2 agonist: -0.5; PKD1 inh: -3; Insulin prom inh: 14; RGS16-Gao HTS: 100; HSV replic up: inactive; Insulin prom inh cell count: 74; HSV replic up primary fold: 0.95

What do the screens show for `Cc1nn(C)c2c(=O)c(=O)c2n(C)[nH]1`?
RGS16-Gao HTS: 103; HSV replic up: inactive; HSV replic up primary fold: 1

Results for O=C1NC(c2cccc([N+](=O)[O-])c2)=CCN1c1ccccc1O ?
RGS16-Gao HTS: 92; HSV replic up: inactive; HSV replic up primary fold: 0.69

What do the screens show for `CCCC1CC(C)(C(=O)CSc2n[nH]c(-c3ccccc3)n2)OC1=O` (centres undefined)?
GALR2 agonist: -2.4; PKD1 inh: -17; Insulin prom inh: -207; RGS16-Gao HTS: 101; HSV replic up: inactive; Insulin prom inh cell count: 130; HSV replic up primary fold: 1

Results for CCOC(=O)C1=C(C)NC(SC)=NC1c1ccc(OC)cc1 (centres undefined) ?
GALR2 agonist: -0.5; PKD1 inh: -4; Insulin prom inh: -438; RGS16-Gao HTS: 110; Insulin prom inh cell count: 51

What do the screens show for `CCC(=O)N=c1sc2c(OC)ccc(OC)c2n1C`?
GALR2 agonist: -0.6; PKD1 inh: -2; HSV replic up: inactive; HSV replic up primary fold: 0.9

How did O=c1cc(-c2ccccc2)nc2nc(SCc3ccccc3)[nH]n12 do in these assays?
GALR2 agonist: -1.2; PKD1 inh: 4; Insulin prom inh: -43; RGS16-Gao HTS: 101; HSV replic up: inactive; Insulin prom inh cell count: 106; HSV replic up primary fold: 0.91

Results for CCOC(=O)C(O)C1CCc2c([nH]c3ccc(C)cc23)C1=O (centres undefined) ?
RGS16-Gao HTS: 104; HSV replic up: inactive; HSV replic up primary fold: 0.88

How did Cc1occc1C(=O)Nc1cccc(C(F)(F)F)c1 do in these assays?
GALR2 agonist: -1.4; PKD1 inh: -12; Insulin prom inh: 58; RGS16-Gao HTS: 111; HSV replic up: inactive; Insulin prom inh cell count: 94; HSV replic up primary fold: 0.79

What do the screens show for `Cc1cc2nc(SCCN3CCCC3)[nH]c2cc1C`?
GALR2 agonist: -0.6; PKD1 inh: -2; Insulin prom inh: 38; RGS16-Gao HTS: 100; HSV replic up: inactive; Insulin prom inh cell count: 130; HSV replic up primary fold: 0.83

What do the screens show for `O=C(c1ccc2snnc2c1)N1CCN(c2ccccc2)CC1`?
GALR2 agonist: 0.5; PKD1 inh: -7; Insulin prom inh: -14; RGS16-Gao HTS: 108; HSV replic up: inactive; Insulin prom inh cell count: 82; HSV replic up primary fold: 1.2

Results for COC(=O)Nc1ncc(CN2CCCCC2)s1 ?
GALR2 agonist: -2.7; PKD1 inh: -6; Insulin prom inh: 38; RGS16-Gao HTS: 116; HSV replic up: inactive; Insulin prom inh cell count: 122; HSV replic up primary fold: 0.89

How did O=C1NCCN1C(=O)C12CC3CC(CC(C3)C1)C2 do in these assays?
GALR2 agonist: -2.7; PKD1 inh: -4; Insulin prom inh: -14; RGS16-Gao HTS: 97; HSV replic up: inactive; Insulin prom inh cell count: 126; HSV replic up primary fold: 1

Results for O=C(N/C(=C/c1ccccc1Cl)C(=O)N1CCCC1)c1ccccc1 ?
PKD1 inh: -8; Insulin prom inh: 0; RGS16-Gao HTS: 98; HSV replic up: inactive; Insulin prom inh cell count: 105; HSV replic up primary fold: 0.94

How did Cc1cccnc1NC(=S)NC(=O)/C=C/c1ccccc1 do in these assays?
PKD1 inh: 6; RGS16-Gao HTS: 91; HSV replic up: inactive; HSV replic up primary fold: 0.79

What do the screens show for `COc1ccc(C2C(C#N)C(C#N)N3CCCN23)cc1` (centres undefined)?
GALR2 agonist: -0.2; PKD1 inh: -4; Insulin prom inh: -36; RGS16-Gao HTS: 96; HSV replic up: inactive; Insulin prom inh cell count: 150; HSV replic up primary fold: 0.82

What do the screens show for `O=C1NC[C@H](c2ccccc2)N(CCc2cccc(F)c2)C1=O`?
RGS16-Gao HTS: 96; HSV replic up: inactive; HSV replic up primary fold: 0.73

How did Cc1ccc(NC(=O)CCNS(=O)(=O)c2cccc3nsnc23)cc1 do in these assays?
GALR2 agonist: -0.7; PKD1 inh: -9; Insulin prom inh: -39; RGS16-Gao HTS: 101; HSV replic up: inactive; Insulin prom inh cell count: 65; HSV replic up primary fold: 1

What do the screens show for `OC1CCCCC1Sc1nc2ccccc2s1` (centres undefined)?
GALR2 agonist: 1.1; PKD1 inh: -9; Insulin prom inh: 28; RGS16-Gao HTS: 98; Insulin prom inh cell count: 168

What do the screens show for `COc1ccc(-c2nc(N/N=C(\C)c3ccc(O)cc3)c3ccccc3n2)cc1`?
RGS16-Gao HTS: 102; HSV replic up: inactive; HSV replic up primary fold: 0.87

Of the compounds above, 2 have a CF3 group.
Results for CCOC(=O)c1c(C)[nH]c(C)c1C(=O)COC(=O)/C=C/c1cccc(C(F)(F)F)c1 ?
GALR2 agonist: -0.5; PKD1 inh: -3; Insulin prom inh: 14; RGS16-Gao HTS: 100; HSV replic up: inactive; Insulin prom inh cell count: 74; HSV replic up primary fold: 0.95

How did Cc1occc1C(=O)Nc1cccc(C(F)(F)F)c1 do in these assays?
GALR2 agonist: -1.4; PKD1 inh: -12; Insulin prom inh: 58; RGS16-Gao HTS: 111; HSV replic up: inactive; Insulin prom inh cell count: 94; HSV replic up primary fold: 0.79

Carrying on.
Results for O=C(CCC(=O)N1CCN(S(=O)(=O)c2ccc(Cl)cc2)CC1)Nc1ccc(Cl)cc1Cl ?
GALR2 agonist: 0.1; PKD1 inh: -3; Insulin prom inh: -64; RGS16-Gao HTS: 23; HSV replic up: inactive; Insulin prom inh cell count: 102; HSV replic up primary fold: 0.93

How did COc1ccc(/C=N/Nc2nonc2N)cc1 do in these assays?
GALR2 agonist: -2.7; PKD1 inh: -5; Insulin prom inh: 20; RGS16-Gao HTS: 100; HSV replic up: inactive; Insulin prom inh cell count: 84; HSV replic up primary fold: 0.91

What do the screens show for `Cn1cc(CNC(=O)/C=C/c2ccc(Cl)cc2)cn1`?
GALR2 agonist: -1.1; PKD1 inh: 7; Insulin prom inh: -46; RGS16-Gao HTS: 109; HSV replic up: inactive; Insulin prom inh cell count: 56; HSV replic up primary fold: 0.95

Results for COc1ccc(C=NCCCN2CCOCC2)cc1 ?
GALR2 agonist: -2.6; PKD1 inh: -12; Insulin prom inh: 24; RGS16-Gao HTS: 101; HSV replic up: inactive; Insulin prom inh cell count: 94; HSV replic up primary fold: 0.98

What do the screens show for `Cn1c(O)c(N=NC(=S)Nc2ccccc2F)c2cc(S(=O)(=O)N3CCOCC3)ccc21`?
PKD1 inh: -2; RGS16-Gao HTS: 97; HSV replic up: inactive; HSV replic up primary fold: 0.74

Results for CC(NC(=O)c1ccccc1Cl)C1COc2ccccc2O1 (centres undefined) ?
GALR2 agonist: -2.9; PKD1 inh: 0; Insulin prom inh: -1; RGS16-Gao HTS: 94; HSV replic up: inactive; Insulin prom inh cell count: 132; HSV replic up primary fold: 1.1

What do the screens show for `Cc1ccc(Oc2nnc(-c3ccccc3)cc2C#N)cc1`?
GALR2 agonist: 0.0; PKD1 inh: 6; Insulin prom inh: -43; RGS16-Gao HTS: 110; HSV replic up: inactive; Insulin prom inh cell count: 68; HSV replic up primary fold: 0.88

How did COc1ccc(C2Nc3ccccc3C(=O)N2Cc2ccco2)cc1COc1ccccc1F (centres undefined) do in these assays?
GALR2 agonist: -0.6; PKD1 inh: -1; Insulin prom inh: -32; RGS16-Gao HTS: 95; HSV replic up: inactive; Insulin prom inh cell count: 55; HSV replic up primary fold: 0.88

How did O=C(CCCn1c(=O)[nH]c2cc(Cl)ccc2c1=O)N1CCN(c2ccc([N+](=O)[O-])cc2)CC1 do in these assays?
GALR2 agonist: -2.6; PKD1 inh: -1; Insulin prom inh: 12; RGS16-Gao HTS: 94; HSV replic up: inactive; Insulin prom inh cell count: 131; HSV replic up primary fold: 1.1

What do the screens show for `CN(c1ccc(C(=O)Nc2cccnc2)cc1)S(C)(=O)=O`?
GALR2 agonist: 0.7; PKD1 inh: 2; Insulin prom inh: -24; RGS16-Gao HTS: 99; HSV replic up: inactive; Insulin prom inh cell count: 185; HSV replic up primary fold: 0.89

What do the screens show for `Cc1cc(C)n(-c2nc3ccccc3nc2N2CCCC2)n1`?
GALR2 agonist: 0.2; PKD1 inh: -1; Insulin prom inh: -393; RGS16-Gao HTS: 108; HSV replic up: inactive; Insulin prom inh cell count: 98; HSV replic up primary fold: 0.92

Results for O=C(NCCOc1nc(N2CCOCC2)nc(N2CCOCC2)n1)Nc1ccccc1 ?
GALR2 agonist: -0.7; PKD1 inh: -5; Insulin prom inh: -23; RGS16-Gao HTS: 140; HSV replic up: inactive; Insulin prom inh cell count: 157; HSV replic up primary fold: 0.89

What do the screens show for `CCC(C)(C)n1nnnc1C(c1cccc(C#N)c1)N1CCN(c2cccc(C)c2C)CC1` (centres undefined)?
GALR2 agonist: -2.6; PKD1 inh: 21; Insulin prom inh: 0; RGS16-Gao HTS: 105; HSV replic up: inactive; Insulin prom inh cell count: 65; HSV replic up primary fold: 0.77

What do the screens show for `Cc1ccc(Nc2cc(C)nc3nc(C)nn23)cc1`?
GALR2 agonist: -0.2; PKD1 inh: -8; Insulin prom inh: 32; RGS16-Gao HTS: 121; Insulin prom inh cell count: 98

What do the screens show for `CC(C)CNC(=O)CC(=O)NN=C1CCCC1`?
GALR2 agonist: -2.3; PKD1 inh: 3; Insulin prom inh: 7; RGS16-Gao HTS: 93; HSV replic up: inactive; Insulin prom inh cell count: 95; HSV replic up primary fold: 0.99

What do the screens show for `CC1CC(=O)Nc2cc([N+](=O)[O-])ccc2N1` (centres undefined)?
RGS16-Gao HTS: 98; HSV replic up: inactive; HSV replic up primary fold: 0.96

What do the screens show for `Cc1cc(C)c2cc(C(=O)Nc3ccc4c(c3)OCO4)[nH]c2c1`?
RGS16-Gao HTS: 106; HSV replic up: inactive; HSV replic up primary fold: 0.65

Results for COc1ccccc1CNC(=O)CCn1c(=O)[nH]c2ccsc2c1=O ?
GALR2 agonist: 0.1; PKD1 inh: -13; Insulin prom inh: 7; RGS16-Gao HTS: 104; HSV replic up: inactive; Insulin prom inh cell count: 104; HSV replic up primary fold: 1

Results for O=c1c2ccccc2nnn1CSc1nc2sc3c(c2c(=O)n1CC1CCCO1)CCC3 (centres undefined) ?
GALR2 agonist: -1.0; PKD1 inh: 3; Insulin prom inh: 27; RGS16-Gao HTS: 104; HSV replic up: inactive; Insulin prom inh cell count: 69; HSV replic up primary fold: 0.89

How did CC1(C)C/C(=N\O)C(C(O)c2cccc([N+](=O)[O-])c2)C(C)(C)N1 (centres undefined) do in these assays?
RGS16-Gao HTS: 100; HSV replic up: inactive; HSV replic up primary fold: 0.88

Two successive compounds already listed:
What do the screens show for `Cc1cc(C)n(-c2nc3ccccc3nc2N2CCCC2)n1`?
GALR2 agonist: 0.2; PKD1 inh: -1; Insulin prom inh: -393; RGS16-Gao HTS: 108; HSV replic up: inactive; Insulin prom inh cell count: 98; HSV replic up primary fold: 0.92

Results for O=C(NCCOc1nc(N2CCOCC2)nc(N2CCOCC2)n1)Nc1ccccc1 ?
GALR2 agonist: -0.7; PKD1 inh: -5; Insulin prom inh: -23; RGS16-Gao HTS: 140; HSV replic up: inactive; Insulin prom inh cell count: 157; HSV replic up primary fold: 0.89

Remaining list, next part.
How did CCCN(C(=O)CSc1nnnn1C)c1c(N)n(Cc2ccccc2)c(=O)[nH]c1=O do in these assays?
PKD1 inh: -5; RGS16-Gao HTS: 112; HSV replic up: inactive; HSV replic up primary fold: 1.2

What do the screens show for `Cc1cc(C(=O)NC(Cc2ccccc2)C(=O)O)c(C)o1` (centres undefined)?
RGS16-Gao HTS: 93; HSV replic up: inactive; HSV replic up primary fold: 1.2

How did COc1ccc2c(c1)sc(N)[n+]2Cc1cc(C)cc2cccnc12 do in these assays?
GALR2 agonist: -0.3; PKD1 inh: -8; RGS16-Gao HTS: 97; HSV replic up: inactive; HSV replic up primary fold: 0.88

Results for Cc1cc(C(F)(F)F)c2sc(N)nc2n1 ?
GALR2 agonist: -1.0; PKD1 inh: -6; RGS16-Gao HTS: 103; HSV replic up: inactive; HSV replic up primary fold: 1.1

Results for COc1cc(NC(=O)c2cc(Cl)ccc2Cl)ccc1-c1cc2ccccc2oc1=O ?
GALR2 agonist: -0.8; PKD1 inh: -3; Insulin prom inh: -106; RGS16-Gao HTS: 104; HSV replic up: inactive; Insulin prom inh cell count: 120; HSV replic up primary fold: 0.94
